Source: PubChem BioAssay (National Center for Advancing Translational Sciences (NCATS))
HTT promoter inh = inhibits huntingtin promoter activity | HEK293 HTT promoter firefly luciferase reporter (activity 0% = vehicle and -100% = no light), 24 h | Potency, µM (doses to about 57.5 µM), for the others: top-dose activity change, negative = inhibition, most hits filed as inhibitors | 48,000 compounds, 0.93% hits | AID 1508623; active = well fitted inhibition curve with a large enough effect; inconclusive = small, poorly fitted or top-dose-only effect; inactive = no such curve, though single readings can be large or run the other way; note: nearly all actives have a fitted effect of over 50% in size
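HEK293 cells carrying firefly luciferase reporters were seeded at 2,500 per well in Opti-MEM and cultured for 24 h. They were then treated with compounds at up to 57.5 uM final for 24 h at 37 degrees C before Dual-Glo luminescence readout.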
PMP22 txn = modulators of PMP22 gene transcription in S16 Schwann cells; S16 Pmp22-F2sN Schwann cells (luciferase reporters placed in the Pmp22 gene), FLuc/NLuc coincidence luminescence, 24 h; Potency, µM (series often up to 57.5 µM), without a hit: at the highest dose activity change, negative = inhibition, hits mostly inhibitors; 43,000 compounds, 2% hits; active = clear falling dose curves in both reporters; inconclusive = both reporters move, but less clearly or upward; inactive = either reporter flat; the % is the NLuc reporter signal; note: % is set by controls: 0 for no effect and ±100 for the full control effect; some results filed as inactive show a strong effect at the top dose
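Transcriptional readout in edited S16(c9) cells: two luciferases reported from the Pmp22 locus, measured in turn after 24 h compound incubation.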
An asterisk follows results filed as active; u = inconclusive; x = not tested or not shown; [ ] = remark or other dose. Potency is the fitted concentration of half-maximal effect.

Sequence of screens – HTT promoter inh, PMP22 txn
CN(C)c1ncc(C(=O)NCc2ccccc2Cl)cn1
→ -4%, -1%
CN(C)c1ccc(CNC(=O)CN2CCSc3ccc(S(=O)(=O)N(C)C)cc32)cc1
→ -28%, -22%
Cc1ccc(NC(=O)[C@H]2O[C@@H]3OC(C)(C)O[C@@H]3[C@H]3OC(C)(C)O[C@H]32)cc1F
→ 0%, -2%
CC(C)Oc1ccc(CNC(=O)CCn2c(=O)c3cccn3c3ccc(F)cc32)cc1
→ -8%, u
CC(C)(C)OC(=O)N1CCC(c2c(C(=O)NCc3ccc4c(c3)OCO4)cnn2-c2ccccc2Cl)CC1
→ 2%, -23%
CCN(CC)CCOC(=O)C(c1ccccc1)C1CCCCC1 (stereo not drawn)
→ -6%, x
CCn1cc(C(=O)OCC(=O)Nc2ccc(C)c(Cl)c2)c(=O)c2ccc(C)nc21
→ -9%, -8%
Cc1ccc(N2CCN(C(=O)c3nn(C)c4c3CS(=O)(=O)c3ccccc3-4)CC2C)cc1 (stereo not drawn)
→ u, u
Cc1ccc(CNc2ccc(-c3nc(C(C)C)no3)cc2[N+](=O)[O-])cc1
→ -10%, -2%
CCn1nnc2cc(C(=O)Nc3cc(C)ccc3C)ccc21
→ -12%, -24%
COc1ccc(-n2c(=O)c3sc4ccccc4c3n(Cc3ccccc3C)c2=O)cc1OC
→ -9%, 3%
COC(=O)c1ccc(NC(=O)CCS(=O)(=O)c2ccc(Br)s2)cc1
→ u, -26%
CCOC(=O)C1CCCN(C(=O)Cn2ncc3c([nH]c4ccccc43)c2=O)C1 (stereo not drawn)
→ -6%, -29%
COc1ccc(NC(=O)c2cc(-c3ccc(F)cc3)no2)cc1OC
→ -9%, u
COc1ccccc1CNC(=O)Cn1c(=O)oc2cc(S(=O)(=O)N3CCC(C)CC3)ccc21
→ u, 13µM*
CCN1CCN(C(=O)c2ccc3c(c2)N(Cc2cccc(Cl)c2)C(=O)c2ccccc2S3(=O)=O)CC1
→ u, -5%
O=C(CN1CCN(Cc2ccc(F)cc2)C1=O)NCc1ccccc1
→ -9%, -10%
Cc1ccccc1CNC(=O)Cn1c(C)c2cnn(-c3ccccc3)c(=O)c2c1C
→ -20%, -12%
Cc1ccc(CNC(=O)c2ccc3c(c2)nc(C)n3-c2cccc(F)c2)cc1
→ -5%, -12%
CCOc1ccc(CNC(=O)C2CCN(c3nc4ccccc4nc3C(F)(F)F)CC2)cc1OC
→ -1%, 3%
CCC(CC)C(=O)Nc1cc(-c2nc3cccnc3s2)ccc1C
→ -3%, 1%
CCOC(=O)c1c(Nc2cccc(C)c2)nnc(-c2ccccc2)c1-c1ccccc1
→ u, u
Cc1ccc(-n2nc(C)c3nc(CCC(=O)Nc4cccc(F)c4)c(=O)n(C)c32)cc1
→ -2%, -1%
COc1ccc(NC(=O)CSc2nc3nc(C)c(Cc4ccccc4)c(C)n3n2)cc1OC
→ -25%, 3%
COc1ccc(N(Cc2cccs2)C(=O)COc2cccc(C)c2C)cc1
→ u, -45%
COc1cccc(NC(=O)c2oc3ccccc3c2NC(=O)C2CCCCC2)c1
→ -8%, -24%
COC(=O)COc1ccc(-c2nnc(Nc3ccc(O)cc3)c3ccccc23)cc1
→ 0%, 11µM*
O=C(Cn1ncc2c3ccccc3n(Cc3ccccc3)c2c1=O)NCCc1ccc(Cl)cc1
→ -1%, u
Cc1ccc(C)c(Nc2nn3c(=O)c4ccc(C(=O)NC5CCCCC5)cc4nc3s2)c1
→ -3%, -21%
CCOc1ccc(NC(=O)CSc2ncc3c(n2)-c2ccccc2N(Cc2ccccc2C)S3(=O)=O)cc1
→ -11%, u
COC(=O)c1c(NC(=O)CCCOc2ccc(C(C)(C)C)cc2)sc2c1CCC(C)C2 (stereo not drawn)
→ -10%, u
COc1ccc(C(=O)Nc2ccc(NC(=O)c3cccs3)cc2)cc1OC
→ -14%, u
COc1ccc(CCNC(=O)Cc2c(C)c3c(cc(C)c4c(C)c(C)oc43)oc2=O)cc1
→ 1%, -4%
O=C(O)CCn1ccc2cc(S(=O)(=O)N3CCCCC3)ccc21
→ -30%, -2%
O=C(NC1CCCCC1)c1ccc2c(c1)N(Cc1cccc(F)c1)C(=O)c1ccccc1S2
→ -11%, 8%
O=C(Cn1cnc2nc3c(cc2c1=O)CCCC3)N1CCN(c2ccccc2)CC1
→ -11%, 17%
Cc1cc(C)c2oc(C(=O)Nc3c(C(=O)Nc4ccccc4)oc4ccccc34)cc(=O)c2c1
→ 15%, 1%
Cc1cccc(C(=O)Nc2c(-c3ccc(F)cc3)nc3ccccn23)c1
→ -19%, -3%
Cc1ccc(Cl)cc1N1CCN(C(=O)c2cc(S(=O)(=O)N3CCCC3)c[nH]2)CC1
→ -22%, -19%
CC(=O)C1=C(OC(=O)C(C)C)c2ccccc2S(=O)(=O)N1Cc1ccccc1
→ -16%, u
O=C(CSc1nnc(-c2ccc3c(c2)OCO3)o1)Oc1ccccc1
→ -16%, -7%
CCN(CC)CCNC(=O)C(=O)NCC(c1cccnc1)N1CCN(c2ccc(F)cc2)CC1 (stereo not drawn)
→ -9%, -5%
CC1=C(C(=O)Nc2cc3cn[nH]c3cc2F)C(c2ccc(C(F)(F)F)cc2)CC(=O)N1 (stereo not drawn)
→ -4%, x
CC(NC(=O)c1ccc(CSc2nc3ccncc3n2Cc2ccc(F)cc2)cc1)c1ccccc1 (stereo not drawn)
→ u, -16%
Cc1cc(C)cc(-n2c(C)nc3cc(C(=O)O)ccc32)c1
→ -4%, -9%
O=C(Cn1cc(SCc2ccccc2F)c2ccccc21)N1CCCC1
→ 42%[activator], -27%
Cc1nc2ccccc2n1CCc1nc2c3ccccc3nc(SCC(=O)Nc3ccc(C(C)C)cc3)n2n1
→ u, u
COCCN(Cc1cccs1)S(=O)(=O)c1cc(-c2cc(C)no2)ccc1C
→ u, -18%
CCn1c(CNC(=O)c2ccc(OC)cc2)nnc1SCC(=O)Nc1ccc(C)cc1
→ -12%, 16%
COc1ccc(CN2C(=O)C(NC(=O)c3ccc(C)cc3)(C(F)(F)F)N=C2c2ccccc2)cc1 (stereo not drawn)
→ -28%, -2%
CCc1ccc(S(=O)(=O)c2nnn3c2nc(NCCC(C)C)c2cc(Cl)ccc23)cc1
→ -9%, -24%
COc1ccc(-c2onc(C)c2C)cc1S(=O)(=O)NCc1ccc(C)o1
→ u, 8.9µM*
CCCCc1c(C)nc2c(-c3ccc(OC)cc3)c(C)[nH]n2c1=O
→ u, u
CCOc1cc(C(=O)Nc2ccc3nc(N4CCN(C)CC4)cc(C)c3c2)cc(OCC)c1OCC
→ -30%, u
COc1ccccc1-c1noc(CSc2nc3ccc(C)cc3[nH]2)n1
→ u, u
Cc1ccc(NC(=O)CCC(=O)N2Cc3ccccc3Oc3ncccc32)cc1
→ -1%, u
COCCn1c(CCC(=O)Nc2ccc(C)c(Cl)c2)nc2cccnc21
→ 10%, -3%
CCCCCn1c(CCCNC(=O)c2ccc(Cl)cc2)nc2ccccc21
→ -24%, u
COc1ccccc1NC(=O)N1c2ccccc2Sc2ccccc21
→ u, u
Cc1cccc(NC(=O)Cn2c(=O)n(Cc3nc(-c4ccccc4)no3)c(=O)c3ccccc32)c1
→ -32%, 15%

Reformatted field by field: entries from further up.
SMILES: COc1ccc(CN2C(=O)C(NC(=O)c3ccc(C)cc3)(C(F)(F)F)N=C2c2ccccc2)cc1 (stereo not drawn)
- HTT promoter inh = -28%
- PMP22 txn = -2%
SMILES: CC(=O)C1=C(OC(=O)C(C)C)c2ccccc2S(=O)(=O)N1Cc1ccccc1
- HTT promoter inh = -16%
- PMP22 txn = u
SMILES: O=C(O)CCn1ccc2cc(S(=O)(=O)N3CCCCC3)ccc21
- HTT promoter inh = -30%
- PMP22 txn = -2%
SMILES: COCCN(Cc1cccs1)S(=O)(=O)c1cc(-c2cc(C)no2)ccc1C
- HTT promoter inh = u
- PMP22 txn = -18%

Random excerpt: two records from the list.
Sequence of screens – HTT promoter inh, PMP22 txn
COc1ccccc1NC(=O)N1c2ccccc2Sc2ccccc21
→ u, u
Cc1cccc(NC(=O)Cn2c(=O)n(Cc3nc(-c4ccccc4)no3)c(=O)c3ccccc32)c1
→ -32%, 15%

Next results follow:
Sequence of screens – HTT promoter inh, PMP22 txn
CCCn1c(=NC(=O)c2c(-c3c(F)cccc3Cl)noc2C)c(C(=O)OCC)cc2c(=O)n3ccccc3nc21
→ -11%, -4%
Cc1cc(Nc2nc(N[C@@H](C)c3ccc(F)cc3)c(C#N)cc2F)n[nH]1
→ u, x
COCCNC(=O)C(=O)NCC(c1cccnc1)N1CCN(c2ccccc2F)CC1 (stereo not drawn)
→ -20%, -30%
COC(=O)c1cc2occc2n1Cc1nc(-c2ccccc2F)oc1C
→ 16%, 10%
COc1ccccc1-c1nnc(C2CCN(S(=O)(=O)c3ccccc3)CC2)o1
→ -16%, 13%
COc1ccc(N2C(=O)CSC23C(=O)N(CC(=O)NC2CCCCC2)c2ccccc23)cc1 (stereo not drawn)
→ -3%, 14%
COc1ccc(C)cc1NC(=O)Nc1cccc(OCc2cc(=O)n3ccc(C)cc3n2)c1
→ 14%, 1%
CCc1ccccc1NS(=O)(=O)c1ccc2c(c1)CC(=O)N2
→ -21%, -7%
CCCCOc1ccc(C2=NC(c3ccncc3)=Nc3ccc(OCC)cc3N2)cc1
→ -3%, -15%
COc1ccc(-n2ccn(Cc3ccccc3C)c(=O)c2=O)cc1
→ -6%, -3%
Cc1ccc(CSc2cn(CCNC(=O)c3cccs3)c3ccccc23)cc1
→ u, u
OCCNC1CCCc2c1[nH]c1ccc(-c3ccccc3)cc21 (stereo not drawn)
→ -9%, x
Cc1cc(C)c(NC(=O)CN(CC(=O)O)CC(=O)O)c(C)c1Br
→ 1%, x
CCCC(=O)N1c2ccccc2-c2nnc(SC)nc2OC1c1sccc1C (stereo not drawn)
→ u, u
Cc1cccc(NC(=O)C(=O)NCC(c2ccc3c(c2)OCO3)N2CCOCC2)c1C (stereo not drawn)
→ -24%, u
CC1(C)C(N(O)C(=O)Nc2ccc(Cl)cc2)N(c2ccc(Cl)cc2)C(=O)N1CC(=O)NN=CC=Cc1ccc([N+](=O)[O-])o1 (stereo not drawn)
→ u, x
CCOC(=O)c1cnc2c(Cl)cc(Cl)cc2c1Nc1ccccc1OC
→ -3%, -9%
Cc1ccc(-n2c(SCC(=O)Nc3cccc(F)c3)nc3c(oc4ccccc43)c2=O)cc1C
→ -7%, -5%
CC(C(=O)O)c1cccc(Oc2ccccc2)c1 (stereo not drawn)
→ -1%, x
COc1cccc(Cn2c(CNS(=O)(=O)c3ccc(Cl)s3)nc3cccnc32)c1
→ -19%, -23%
COc1ccc(OC)c(NC(=O)Cn2cc(C(=O)c3cccs3)c3ccccc32)c1
→ u, u
Cn1c(=O)c(=O)n(C)c2cc(C(=O)NCc3ccccc3Cl)ccc21
→ -14%, -15%
COC(=O)c1ccccc1NC(=O)Cn1c(=O)n(CCCC(=O)NCc2ccccc2Cl)c(=O)c2ccccc21
→ -13%, u
Clc1ccc(-c2nnn3c2nc(NC2CCCCC2)c2ccccc23)cc1
→ -16%, -6%
CCCS(=O)(=O)c1ncc(Cl)c(C(=O)Nc2c(C(=O)c3ccccc3)oc3ccccc23)n1
→ -9%, u
N#Cc1ccccc1S(=O)(=O)N1CCCC(c2nc3c(nnn3Cc3cccc(Cl)c3)c(=O)[nH]2)C1 (stereo not drawn)
→ -11%, u
COCCCNC(=O)C1CCCN(c2nn3cc(-c4ccc(C)cc4)nc3s2)C1 (stereo not drawn)
→ u, -20%
Cc1ccc2occ(CC(=O)Nc3ccc(S(=O)(=O)N4CCCC(C)C4)cc3)c2c1 (stereo not drawn)
→ u, -38%
O=C1[C@H](CC[C@H](O)c2ccc(F)cc2)[C@@H](c2ccc(O)cc2)N1c1ccc(F)cc1
→ -11%, x
Cn1c(=O)c2c(nc(CN3CCN(c4ccccc4F)CC3)n2Cc2ccccc2F)n(C)c1=O
→ -14%, -1%
COc1ccccc1CNC(=O)c1cn(C)c2ccc(S(=O)(=O)N3CCC(C)CC3)cc2c1=O
→ 1%, -2%
Cc1ccc(C)c(N2CCN(C(=O)Cn3nc(C)c4sc5ccccc5c4c3=O)CC2)c1
→ -9%, 11%
Cc1ccc(C(=O)Nc2ccc(S(=O)(=O)N3CCC(c4nc5ccccc5s4)CC3)cc2)cc1
→ -9%, 12µM*
Cc1cccc(N2CCN(c3c(CN4CCCC4)c(=O)oc4ccccc34)CC2)c1C
→ -9%, 16%
CCOc1ccc(NC(=O)NCCN2CCN(c3ccccc3F)CC2)cc1
→ -13%, -8%
O=C(Nc1ccc(Br)cc1)c1ccc(Br)c(S(=O)(=O)NCc2ccccc2)c1
→ u, u
OC[C@H](Cc1ccccc1)Nc1nc(Oc2ccc3c(c2)CCC3)nc2c1ncn2Cc1ccc(-c2ccccc2)cc1
→ -9%, x
COCCN1C(=O)c2oc3ccc(C)cc3c(=O)c2C12C(=O)N(C)c1ccccc12 (stereo not drawn)
→ -9%, 21%
COc1cc(NC(=O)CSc2nc3ccccc3nc2Cc2ccc(Cl)cc2)cc(OC)c1
→ -8%, u
Cn1c(=O)c2c(nc(NCc3ccccc3)n2Cc2ccccc2)n(C)c1=O
→ u, 13µM*
